Polio RdRp inh: inhibitors of poliovirus RNA polymerase binding and polymerization | poliovirus polymerase elongation, fluorescence polarization; hits give low values | % elongation, % (compound at 16.7 µg/mL) | 150,000 compounds, 0.66% hits; in the data active = % elongation below about 90%; also: some results filed as inactive read as strong as hits
Target sequence (P03300 1749-2209 limits assumed): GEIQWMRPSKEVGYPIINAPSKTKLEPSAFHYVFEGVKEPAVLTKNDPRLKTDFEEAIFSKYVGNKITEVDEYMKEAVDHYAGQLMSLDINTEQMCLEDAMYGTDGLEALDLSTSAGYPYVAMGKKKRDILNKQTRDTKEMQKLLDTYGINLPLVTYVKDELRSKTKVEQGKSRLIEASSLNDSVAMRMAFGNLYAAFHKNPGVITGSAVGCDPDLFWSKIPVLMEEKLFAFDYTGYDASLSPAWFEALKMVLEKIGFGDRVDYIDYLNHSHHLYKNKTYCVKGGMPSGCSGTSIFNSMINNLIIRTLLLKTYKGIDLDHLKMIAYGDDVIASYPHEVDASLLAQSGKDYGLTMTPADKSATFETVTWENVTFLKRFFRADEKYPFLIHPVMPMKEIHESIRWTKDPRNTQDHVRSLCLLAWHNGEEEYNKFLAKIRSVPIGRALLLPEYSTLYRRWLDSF
MbtI inh: MbtI salicylate synthase inhibition; P9WFX0; 100,000 compounds, 0.89% hits; AID 493033; purified MbtI enzyme, fluorescence intensity read-out; inhibition, %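 (about 17 µg/mL by stock and volumes)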;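 active = above 50% in both replicates, above 80% if mildly self-fluorescent; inactive = the rest, strongly fluorescent compounds included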;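 also: 0% = mean of negative and 100% = mean of positive controls; one replicate is shown; some compounds called inactive have numbers as strong as hits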
Target sequence (P9WFX0 whole entry, looked up): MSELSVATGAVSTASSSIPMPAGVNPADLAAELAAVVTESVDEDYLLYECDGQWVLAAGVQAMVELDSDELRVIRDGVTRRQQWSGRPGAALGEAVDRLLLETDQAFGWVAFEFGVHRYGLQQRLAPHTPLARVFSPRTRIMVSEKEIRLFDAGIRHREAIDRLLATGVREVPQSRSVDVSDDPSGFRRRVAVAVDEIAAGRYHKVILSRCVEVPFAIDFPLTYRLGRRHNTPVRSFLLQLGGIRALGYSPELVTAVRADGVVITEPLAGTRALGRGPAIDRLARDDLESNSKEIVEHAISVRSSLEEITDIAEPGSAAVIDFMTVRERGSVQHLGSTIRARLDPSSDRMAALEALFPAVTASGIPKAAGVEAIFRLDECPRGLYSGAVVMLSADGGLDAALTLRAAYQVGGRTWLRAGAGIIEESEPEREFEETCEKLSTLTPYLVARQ
MenB inh: inhibitors of Mycobacterium tuberculosis MenB enzyme; MenB enzyme assay, absorbance read-out; some hits fall short of the stated cut; inhibition, %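 (about 12 µg/mL by stock and volumes)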; 100,000 compounds, 0.43% hits;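 active = mean of two replicates above 30%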;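 also: 0% = no compound and 100% = wells with inactive enzyme; the first replicate is given; strong numbers were not always called active; inactives centre near -10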
Polio RdRp inh intensity: second read-out of Polio RdRp inh, no call of its own (marks repeat the call); % elongation; measured here: total intensity read-out; formula for this scale not given here;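 total fluorescence in place of polarization; lower means less elongation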
* hit, by the source's call; i = inactive; / = no result given; & = joins results of further samples.

nr | mol | Polio RdRp inh intensity | Polio RdRp inh | MbtI inh | MenB inh
1 | CCN1CCCC1CNC(=O)c1cc2c(=O)oc3ccc(C)cc3c2s1 (configuration not stated) | 103 | 100 | 42 | 3
2 | CN(C)c1ccc(NC(=O)CSc2nc3ccncc3[nH]2)cc1 | 103 | 100 | 1 | -11
3 | Cc1cccc(N2C(=O)N(c3cccc(Cl)c3)C3CS(=O)(=O)CC32)c1 (configuration not stated) | 101 | 103 | -53 | -21
4 | CCOC(=O)c1cc(-c2ccc(OC)c(S(=O)(=O)Nc3ccc(OC)cc3)c2)on1 | 104 | 101 | -1 | -3
5 | CCCNC(=O)c1ccc2c(c1)sc1nc(-c3ccccc3)cn12 | 107 | 102 | -8 | -11
6 | Cc1cccc[n+]1C/C=C\c1ccccc1 | 100 | 103 | 16 | 8
7 | Clc1nc2ccccc2n2cnnc12 | 132 | 89 | 67 | 2
8 | CCN(CC)C(=O)c1cc(-c2ccccc2)on1 | 102 | 102 | 7 | 34*
9 | C=COc1ccc(N2C(=O)c3ccccc3OC2C)cc1 (configuration not stated) | 103 | 106 | / | -5
10 | O=c1c(-c2ccc3ccccc3n2)coc2cc(O)ccc12 | 134 | 126 | -4 | -24
11 | CC12CCC(=O)N1C1CCCCC1N2 (configuration not stated) | 104 | 101 | -4 | -4
12 | COc1ccc(C(=O)CSc2nc(=O)n3cc(C)ccc3n2)cc1 | 108 | 107 | 1 | -35
13 | Cc1ccc(NS(=O)(=O)c2ccccc2)cc1 | 103 | 105 | 7 | -3
14 | CCOC(=O)c1c(C)[nH]c(C)c1C(=O)COc1ccc(C#N)cc1 | 106 | 102 | 6 | -27
15 | O=C(Cn1ccccc1=O)Nc1ccc2c(c1)OC1(CCCC1)O2 | 97 | 101 | 20 | 0
16 | CN1C(=O)/C(=C/c2ccc(SCc3ccccc3)o2)SC1=S | 110 | 110 | 40 | -15
17 | Cc1ccc(-n2c(C)cc(P(=S)(N3CCOCC3)N3CCOCC3)c2C)c(C)c1 | 91 | 92 | 69* | -133
18 | O=C(O)c1ccc(NCCC(=O)c2ccccc2)cc1 | 101 | 99 | 11 | 5
19 | Cc1ccccc1NC(=O)CC1Nc2ccccc2NC1=O (configuration not stated) | 109 | 96 | / | -12
20 | CN(C)c1ccc(N=Cc2c(O)ccc3ccccc23)cc1 | 120 | 111 | 0 | /
21 | Cc1ccc(N2C(=O)C3N=NN(CC(=O)NCc4ccccc4Cl)C3C2=O)cc1C (configuration not stated) | 103 | 104 | -6 | -13
22 | CCOC(=O)C1CCCN(S(=O)(=O)c2cccc3nsnc23)C1 (configuration not stated) | 98 | 99 | 23 | -2
23 | CC(Cc1ccccc1)NC(=O)c1ccc(N)cc1 (configuration not stated) | 107 | 103 | / | -10
24 | Cn1c(SCc2ccccc2)nnc1C1CCCN1C(=O)Nc1ccccc1 (configuration not stated) | 99 | 99 | -7 | -2
25 | Cc1cc2c(c(=S)[nH]1)C(=O)O/C2=C/c1ccc(Cl)c(Cl)c1 | 105 | 104 | / | -15
26 | CCCCc1cc(=O)oc2c3c(c(Cl)cc12)OCN(Cc1ccc(OC)c(OC)c1)C3 | 106 | 103 | -140 | -19
27 | C#CCN1C(=O)C(O)(C2CCc3ccccc3C2=O)c2ccccc21 (configuration not stated) | 102 | 101 | -22 | -7
28 | Cc1ccccc1CSCC(=O)c1ccc[nH]1 | 108 | 104 | -8 | -14
29 | O=C(OCc1ccccc1)c1cccnc1 | 86 | 104 | -11 | -3
30 | CC1c2cccn2CCN1C(=O)NC1CCCCC1 (configuration not stated) | 104 | 98 | 11 | 4
31 | Cn1nc(C(=O)N2CCCSC2=Nc2ccccc2)c2ccccc2c1=O | 97 | 98 | -2 | 5
32 | O=C(O)CSc1nc2ccccc2c(=O)[nH]1 | 112 | 109 | / | -3
33 | Fc1ccccc1-n1ncc2c1ncn1nc(-c3ccccc3)nc21 | 100 | 101 | 5 | -3
34 | Cc1ccc(N2CC(C(=O)N(Cc3ccccc3)c3ccccn3)CC2=O)cc1 (configuration not stated) | 102 | 98 | -5 | 6
35 | O=C1CCCN2C(=N1)SC(=S)N2CN(Cc1ccccc1)Cc1ccccc1 | 102 | 102 | 45 | -21
36 | Cc1ccc(Cn2c(N(C)C)nc3c2c(=O)[nH]c(=O)n3C)cc1 | 100 | 101 | -1 | -16
37 | O=C(OCCOc1ccccc1)c1cccc(OC(F)F)c1 | 98 | 101 | 8 | -26
38 | CCCc1cc(=O)[nH]c(SCC(N)=O)n1 | 105&108 | 104&107 | 5 | 2&-15
39 | O=C1C2CCCC1CC(C(=O)N1CCCCC1)C2 (configuration not stated) | 98 | 101 | -11 | /
40 | CCc1ccc(C(=O)COC(=O)C2(CC(=O)N3CCOCC3)CCCC2)cc1 | 102 | 100 | -25 | -27
41 | CN(C)c1ccc(/C=C(\C#N)S(=O)(=O)C(C)(C)C)c(F)c1C#N | 103 | 103 | 6 | -43
42 | CCCNC(=O)C1CSC2(CCN(C)CC2)N1C(=O)CC (configuration not stated) | 103 | 101 | -15 | 14
43 | CCN(C(=O)c1cc(S(=O)(=O)N2CCOCC2)cn1C)c1cccc(C)c1 | 102 | 102 | -19 | 8
44 | Cc1ccc(CCCOC(=O)CN2CCCC2)cc1 | 106 | 101 | -15 | /
45 | COc1ccc(F)cc1CSc1nnc2nc(C)cc(C)n12 | 109 | 105 | 9 | -12
46 | O=C(CN1CCCC1c1cccs1)NN1C(=O)NC2(CCCCC2)C1=O (configuration not stated) | 104 | 106 | 16 | -3
47 | O=C(c1cc2ccccc2cc1OCC(=O)N1CCc2ccccc21)N1CCOCC1 | 107 | 106 | 29 | -17
48 | CCN(CC)S(=O)(=O)c1cccc(C(=O)OCC(=O)N2CC(=O)Nc3ccccc32)c1 | 98 | 98 | 14 | 7
49 | Nc1c(C(=O)NCCC2=CCCCC2)nnn1-c1cccc(C(F)(F)F)c1 | 105 | 103 | 2 | -12
50 | COC(=O)c1ccc(CNC(C)(C)C)o1 | 116 | 111 | / | -2

Full records as entered above. Order of values: Polio RdRp inh intensity	Polio RdRp inh	MbtI inh	MenB inh
Profile of O=C1C2CCCC1CC(C(=O)N1CCCCC1)C2 (configuration not stated) : 98	101	-11	/
Profile of Fc1ccccc1-n1ncc2c1ncn1nc(-c3ccccc3)nc21 : 100	101	5	-3
Profile of O=C(OCc1ccccc1)c1cccnc1 : 86	104	-11	-3

More compounds follow.
nr | mol | Polio RdRp inh intensity | Polio RdRp inh | MbtI inh | MenB inh
51 | O=C(COc1ccccc1O)c1cccs1 | 93 | 102 | 8 | /
52 | CC(C)NC(=O)COc1ncnc2ccccc12 | 108 | 103 | -7 | -10
53 | COC(=O)CSc1c(-c2ccccc2)c2cc(Cl)ccc2[nH]c1=O | 108 | 102 | -201 | -7
54 | CN(CCO)c1cc(Br)c2noc3c2c1C(=O)c1ccccc1-3 | 117 | 98 | -6 | 0
55 | Cc1ccc(NC(=O)CC(NC2CCCCC2)C(=O)O)cc1Cl (configuration not stated) | 102 | 101 | -3 | 2
56 | CC(C)OC(=O)C1C2C=CC3(CN(c4cccc(Cl)c4)C(=O)C13)O2 (configuration not stated) | 101 | 101 | 2 | -8
57 | CCC(=O)N(CCC(c1ccccc1)C1CCOC(C)(C)C1)Cc1ccc(OC)cc1 (configuration not stated) | 94 | 106 | / | -20
58 | CC(Nc1nc2nonc2nc1NC(C)c1ccccc1)c1ccccc1 (configuration not stated) | 108 | 104 | 4 | -16
59 | CCN1C(=O)/C(=C/c2ccc(F)cc2)NC1=S | 103 | 105 | 1 | -81
60 | NNC(=O)C1CC1c1ccccc1 (configuration not stated) | 100 | 98 | -13 | -22
61 | Cc1ccc(C(=O)O)cc1-c1ccc(C=C2C(=O)c3ccccc3C2=O)o1 | 106 | 104 | 23 | -9
62 | O=c1c(NCc2ccccc2)nccn1-c1ccccc1 | 103 | 104 | -47 | 0
63 | O=C(NC1CCCCCCC1)C1=COCCO1 | 106 | 102 | -8 | -20
64 | Cn1nc(SCC(=O)NN)c(=O)n(C)c1=O | 96 | 103 | 1 | 4
65 | COC(=O)c1cc(OCC(=O)c2ccc[nH]2)cc(C(=O)OC)c1 | 103 | 100 | 12 | -9
66 | O=C(COc1cccc(-n2cnnn2)c1)N1CCc2ccccc2C1 | 121 | 90 | -13 | -23
67 | CCCCN(C(=O)c1cc2c(s1)-c1ccccc1OC2)C1CCN(C(C)=O)CC1 | 106 | 103 | -108 | -32
68 | CCOC(=O)C1CCN(C(=O)COC(=O)Cc2ccsc2)CC1 | 109 | 108 | -10 | 5
69 | CC(=O)Nc1ccc(S(=O)(=O)N(C)CC(=O)OCc2cc(=O)oc3cc(O)ccc23)cc1 | 105 | 101 | -115 | -9
70 | CCOC(=O)c1cc(CC)sc1Nc1nc2ccccc2nc1N1CCOCC1 | 97 | 96 | 12 | -93
71 | COc1cc(/C=N/OCC(=O)NC2CCCCC2)ccc1OC(F)F | 99 | 102 | 6 | -81
72 | c1ccc2c(c1)OC1c3ccccc3OC3c4ccccc4OC2N31 (configuration not stated) | 104 | 99 | -9 | 5
73 | c1ccc(CSc2nnc3sc4ccccc4n23)cc1 | 102 | 100 | 3 | 13
74 | O=S(=O)(c1ccc(Cl)cc1)N1CCn2c1nc1ccccc12 | 104 | 106 | -8 | 6
75 | CCc1cc2c(=O)c(-n3cnc4ccccc43)coc2cc1O | 102 | 100 | -13 | /
76 | O=C(OCCCCN1C(=O)c2ccccc2C1=O)C1=NN(c2ccccc2)C(=O)CC1 | 100 | 102 | 12 | 17
77 | COc1cccc(CNC(=O)CCC2=NS(=O)(=O)c3ccc(C)cc3N2)c1 | 104 | 103 | -7 | -2
78 | Cc1c(C#N)c(N)n(C2CCCCC2)c1C | 118 | 105 | 2 | -7
79 | N#Cc1cccc(NC(=O)Nc2cccn(Cc3ccccc3)c2=O)c1 | 107 | 101 | 89 | -5
80 | FC(F)(F)c1ccccc1NNC(=S)NCC1CCCO1 (configuration not stated) | 97 | 99 | -4 | -4
81 | O=C(Nc1ccccc1)c1cc2sccc2n1Cc1ccccc1 | 102 | 100 | 24 | 29
82 | Cc1cc(S(N)(=O)=O)c2ncccc2c1 | 112 | 106 | / | -14
83 | CC(C)=CC1C(C(=O)NCCOc2ccccc2)C1(C)C (configuration not stated) | 101 | 106 | -16 | -21
84 | NNc1nc(NN)c2c3c(sc2n1)CCCCC3 | 81 | 100 | 11 | -105
85 | CC(=O)Nc1sc(C)c(C)c1C(=O)OCn1nnc2ccccc2c1=O | 105 | 99 | -5 | -12
86 | COc1ccc2c(c1)CCc1c-2nc2ccccc2c1N1CCOCC1 | 98 | 99 | 5 | -11
87 | Cc1csc2sc(COC(=O)Nc3ccccc3)c(C)c12 | 104 | 101 | -5 | -5
88 | CCCC1c2cccn2CCN1C(=O)Nc1ccccc1 (configuration not stated) | 103 | 101 | 7 | 10
89 | COc1ccccc1C(=O)/C=C1\NC(=O)CS1 | 115 | 107 | 18 | -23
90 | O=C1CCC2=C(CCCC2=O)N1 | 104 | 103 | 37 | -53
91 | CN(CC1COc2ccccc2O1)S(=O)(=O)c1ccc2c(c1)CCCC(=O)N2 (configuration not stated) | 102 | 99 | -4 | -20
92 | CCOC(=O)CC1C(=O)NCCN1C(=O)Nc1ccccc1 (configuration not stated) | 102 | 104 | -14 | -20
93 | CN(C)c1ccc(/C=C(\C#N)C(N)=O)cc1 | 121 | 128 | 39 | i
94 | N#Cc1c(N)nc2c(c1-c1ccncc1)CCCC2 | 102 | 100 | 155 | -5
95 | CCOc1cc(C(=O)O)cc(Cl)c1O | 105 | 102 | -10 | -19
96 | Cc1noc(C)c1CC(=O)O | 103 | 103 | -13 | 2
97 | O=C1N=C(c2ccccc2)S/C1=C\c1cccs1 | 95 | 97 | 100* | -85
98 | CSc1nncn1/N=C/c1ccc(Br)cc1 | 103 | 102 | -17 | -19
99 | CC(=O)Oc1ccc2occ(C(=O)CCN(C)C)c2c1 | 103 | 101 | / | 2
100 | CC(Sc1nnc2c(Cl)cc(Cl)cn12)C(=O)NCc1ccco1 (configuration not stated) | 102 | 101 | 8 | 6

Reformatted in transposed form: three of the compounds above.
[78] Cc1c(C#N)c(N)n(C2CCCCC2)c1C
[82] Cc1cc(S(N)(=O)=O)c2ncccc2c1
[85] CC(=O)Nc1sc(C)c(C)c1C(=O)OCn1nnc2ccccc2c1=O

entry no.	78	82	85
Polio RdRp inh intensity	118	112	105
Polio RdRp inh	105	106	99
MbtI inh	2	/	-5
MenB inh	-7	-14	-12

Continuation:
nr | mol | Polio RdRp inh intensity | Polio RdRp inh | MbtI inh | MenB inh
101 | COC(=O)CN(C)S(=O)(=O)c1ccc(Br)cc1 | 103 | 99 | 2 | 10
102 | CCOC(=O)c1ccc(N=C(N)SCc2ccc(Cl)cc2)cc1 | 93 | 101 | -9 | 2
103 | O=C1c2ccccc2C(=O)N1CCc1ccccc1 | 102 | 100 | -1 | -20
104 | COc1ccc(C(=O)NCCc2cn3ccccc3n2)cc1 | 104 | 105 | 102 | -16
105 | CCN1CCN(Cc2nnnn2C(C)(C)C)CC1 | 101 | 100 | 0 | -10
106 | O=C1CN(C(=O)CSC2=Nc3ccccc3CS2)c2ccccc2N1 | 105 | 111 | 31 | 4
107 | Cc1c(CCC(=O)NCc2ccc3c(c2)OCO3)c(=O)oc2cc3occ(C(C)(C)C)c3cc12 | 103 | 101 | 152 | -5

Screening results from PubChem BioAssay.
